# Assay outcomes deposited in PubChem BioAssay by National Center for Advancing Translational Sciences (NCATS).
# Six1-Eya2 blk: Six1/Eya2 interaction inhibition | Q15475+O00167 | AlphaScreen GST-Six1/His-Eya2 binding, biochemical; stronger effect = lower value; control for the full effect not named in the record | activity change, % (no concentration beside the values) | 0.56% of 360,000 active; in the data active = activity change below about -65%; inconclusive = about -30% to -65%; inactive = above about -30%; note: compound concentration not given in the record
# Target sequence (O00167 whole entry, looked up): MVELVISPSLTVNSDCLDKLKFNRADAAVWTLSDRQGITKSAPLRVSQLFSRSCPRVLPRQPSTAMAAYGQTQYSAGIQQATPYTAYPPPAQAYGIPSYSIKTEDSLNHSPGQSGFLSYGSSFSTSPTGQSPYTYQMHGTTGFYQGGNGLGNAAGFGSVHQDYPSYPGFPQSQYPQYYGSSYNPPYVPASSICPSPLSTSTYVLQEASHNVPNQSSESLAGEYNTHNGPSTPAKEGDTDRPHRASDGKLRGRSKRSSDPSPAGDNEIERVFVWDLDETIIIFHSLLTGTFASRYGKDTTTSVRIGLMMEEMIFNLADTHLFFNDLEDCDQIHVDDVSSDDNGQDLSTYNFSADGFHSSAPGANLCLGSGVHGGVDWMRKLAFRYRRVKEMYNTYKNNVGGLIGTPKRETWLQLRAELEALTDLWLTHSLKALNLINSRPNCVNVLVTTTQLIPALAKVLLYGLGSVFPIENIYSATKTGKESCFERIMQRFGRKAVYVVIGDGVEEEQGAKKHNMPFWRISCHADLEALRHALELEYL
# Target sequence (Q15475 whole entry, looked up): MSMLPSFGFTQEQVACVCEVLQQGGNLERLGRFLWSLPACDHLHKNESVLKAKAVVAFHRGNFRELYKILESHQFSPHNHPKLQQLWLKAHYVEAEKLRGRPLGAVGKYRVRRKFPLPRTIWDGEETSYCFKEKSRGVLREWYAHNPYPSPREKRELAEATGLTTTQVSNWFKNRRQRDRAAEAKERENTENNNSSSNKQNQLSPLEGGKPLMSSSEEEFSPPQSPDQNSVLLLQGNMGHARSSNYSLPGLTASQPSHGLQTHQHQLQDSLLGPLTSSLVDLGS
#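 Six1/Eya2 binding was read as AlphaScreen signal after compounds were pinned into GST-Six1 plus His-tagged Eya2 (5X stock 250/500 nM) in pH 8.0 Tris/NaCl/TCEP buffer, beads added, then incubated 1 h, 37 C, dark.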
# CtBP-E1A blk: blocks the CtBP interaction with E1A | activity change, % (no concentration beside the values) | 0.49% of 340,000 active | AID 651724 | AlphaScreen GST-E1A/His-CtBP binding, 1536-well; stronger effect = lower value; control for the full effect not named in the record; in the data active means activity change below about -65%; inconclusive means about -30% to -65%; inactive means above about -30%; note: compound concentration not given in the record
#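 In 5 uL wells, 23 nL compound meets equimolar GST-E1A and His-CtBP (5X stock 125 nM each) for 2 h, 37 °C. Beads (5X, 50 ug/mL) then 1 h, 37 °C, dark.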
# * hit, by the source's call; ? = inconclusive. % is set by controls: 0 for no effect and ±100 for the full control effect.
# Results follow in this order: Six1-Eya2 blk, CtBP-E1A blk
CCCCCNC(=O)C(C1CC1)n1c(=O)c(-c2ccco2)nc2ccccc21 (stereo not given)
→ -2, 5
CCCCCCCCN1C(=O)[C@H](CC(=O)N2CCOCC2)C[C@@]2(C(=O)OC)CC(C)(C)CC=C12
→ -3, -2
COc1ccc([N+](=O)[O-])cc1CN1CCN(c2ncc(Cc3ccccc3)cn2)CC1
→ -13, -4
O=C1Nc2ccccc2C(=O)N(C2CCCC2)C1C(=O)NC1CC1 (stereo not given)
→ 10, 2
COc1cc(C(=O)C(=O)N2CCC(Cc3ccccc3)CC2)cc2ccccc12
→ -3, -4
COc1ccc(C(O)C(O)(C(=O)OC(C)C)c2ccc(C)cc2)cc1 (stereo not given)
→ 11, -15
CC(C)NC(=O)N[C@H]1C=C[C@H](CC(=O)NCc2ccc(Oc3ccccc3)cc2)O[C@@H]1CO
→ -7, -11
CCCCNC(=O)C[C@@H]1C[C@@]2(C(=O)OC)CC(C)(C)CC=C2N(CCc2ccc(OC)c(OC)c2)C1=O
→ 0, 3
O=C(NCc1ccccc1)C(c1ccc(-c2ccccc2)cc1)N1CCN(C(=O)C2CCCO2)CC1 (stereo not given)
→ 0, -10
CC1(C(=O)Nc2ccc3c(c2)OCCO3)CSCC(=O)N1CCc1ccccc1F (stereo not given)
→ -12, -3
COC(=O)[C@]12CCCCC=C1N(Cc1ccc3c(c1)OCO3)C(=O)[C@H](CC(=O)NCc1cccc3ccccc13)C2
→ -14, ?
O=C(NCc1ccccc1)C(c1ccncc1)n1c(=O)c(-c2ccccc2)nc2ccccc21 (stereo not given)
→ -4, 2
O=C(C(=O)N1CCC(c2ccccc2)CC1)c1cccc([N+](=O)[O-])c1
→ -16, -19
CCCCNC(=O)c1nc(-c2cc3ccccc3[nH]2)oc1-c1cccc(C(F)(F)F)c1
→ -4, -3
COC(=O)[C@]12CCCCC=C1N(CCc1ccc(OC)c(OC)c1)C(=O)[C@H](CC(=O)NCCCN1CCCC1=O)C2
→ 2, -8
COCCN1C(=O)CN(S(C)(=O)=O)CC1(C)C(=O)NCc1ccccc1 (stereo not given)
→ 0, 2
COc1ccc(NC(=O)N[C@H]2C=C[C@@H](CC(=O)NC3CCC3)O[C@@H]2CO)cc1
→ 2, -6
CC(C)(C)C(C(=O)NCc1ccccc1)N1CCN(C(=O)C2CCCO2)CC1 (stereo not given)
→ -6, 6
Cc1cccc(C)c1NC(=O)C(c1ccccc1OC(F)(F)F)N1CCC(c2ccccc2)CC1 (stereo not given)
→ 4, -18
CCOC(=O)[C@]12CCCC=C1N(CCC1=CCCCC1)C(=O)[C@H](CC(=O)N1CCC(c3ccccc3)CC1)C2
→ -3, -2
CSCCC(C(=O)Nc1c(C)cccc1C)n1c(-c2cnc(C)cn2)nc2ccccc21 (stereo not given)
→ -10, -1
CSCCC(C(=O)NC(C)(C)C)n1c(-c2ccc3c(c2)OCO3)nc2ccccc21 (stereo not given)
→ -9, -1
COC(=O)C[C@@H]1C=C[C@@H](NC(=O)C2CCC2)[C@@H](CO)O1
→ 8, 12
Cc1cccc(C)c1NC(=O)C1(C)CN(S(C)(=O)=O)CC(=O)N1CCc1ccc(O)cc1 (stereo not given)
→ 1, -7
CCc1c(-c2ccccc2)ncn1Cc1cccc(-c2ccccc2)c1
→ -14, -3
CCC(C(=O)NC1CCCC1)n1c(-c2ccccn2)nc2ccccc21 (stereo not given)
→ -7, 5
COC(=O)[C@@]12C[C@@H](CC(=O)N3CCN(C(=O)C4CC4)CC3)C(=O)N(Cc3ccc4c(c3)OCO4)C1=CCC(C)(C)C2
→ 8, -17
COc1ccc(N2CCN(C(=O)C(=O)c3cc(OC)c4ccccc4c3)CC2)cc1
→ -19, -19
COC(=O)[C@@]12C[C@@H](CC(=O)NCCC(C)C)C(=O)N(Cc3ccccc3)C1=CCC(C)(C)C2
→ -5, 5
Cc1ccc(-c2nc3ncccn3c2N)cc1
→ -7, -10

# Copied from the list.
# COCCN1C(=O)CN(S(C)(=O)=O)CC1(C)C(=O)NCc1ccccc1 (stereo not given) in Six1-Eya2 blk → 0
# CCc1c(-c2ccccc2)ncn1Cc1cccc(-c2ccccc2)c1 in Six1-Eya2 blk → -14
# CCC(C(=O)NC1CCCC1)n1c(-c2ccccn2)nc2ccccc21 (stereo not given) in Six1-Eya2 blk → -7

# Remaining list, next part.
# Results follow in this order: Six1-Eya2 blk, CtBP-E1A blk
CC(c1nc2ccccc2[nH]1)n1c(-c2ccncc2)nc2ccccc21 (stereo not given)
→ 2, 1
Cc1cccc(C)c1NC(=O)C1(C)CSCC(=O)N1Cc1cccs1 (stereo not given)
→ 0, -4
CCOC(=O)/C=C/c1cccc(OC)c1O
→ 31, -9
Nc1sccc1C(=O)NCCN1CCOCC1
→ 7, 1
Cc1ccc(S(=O)(=O)N2[C@@H](Cc3ccccc3)CO[C@H]2CC(=O)c2ccccc2)cc1
→ 10, -22
CC(C)(C)NC(=O)C(c1ccccc1)n1c(-c2ccc(-c3ccccc3)cc2)nc2ccccc21 (stereo not given)
→ -6, 7
Cc1ccc(N2CCN(C(=O)C(=O)c3cccc([N+](=O)[O-])c3)CC2)cc1
→ -24, -5
O=C(Nc1ccc(F)cc1)C(c1cc2ccccc2o1)N1CCN(C(=O)c2ccco2)CC1 (stereo not given)
→ -7, 0
CCCCNC(=O)C1C(c2ccc(C(F)(F)F)cc2)=Nc2ccccc2N1C(=O)c1ccc2nc(C)[nH]c2c1 (stereo not given)
→ -2, 12
O=C(N[C@@H]1CC[C@@H](CCNC(=O)C2CCOCC2)O[C@@H]1CO)c1ccncc1
→ 9, -16
O=C(Nc1c(-c2ccccc2)[nH][nH]c1=O)c1cccs1
→ -3, 0
O=C(NCCc1ccccc1F)C1C(=O)Nc2ccccc2C(=O)N1C1CCCCC1 (stereo not given)
→ -3, -22
O=C(NCCc1ccccc1)C1C(=O)Nc2ccccc2C(=O)N1C1CCCCC1 (stereo not given)
→ -6, 1
Cc1cccc(C)c1NC(=O)C(c1ccc(C#N)cc1)n1c(=O)c(-c2ccco2)nc2ccccc21 (stereo not given)
→ -9, 0
O=C(NCC(F)(F)F)C1C(=O)Nc2ccccc2C(=O)N1Cc1ccccc1 (stereo not given)
→ 5, 16

# A second format for part of the listing above.
mol	Six1-Eya2 blk	CtBP-E1A blk
Nc1sccc1C(=O)NCCN1CCOCC1	7	1
O=C(Nc1c(-c2ccccc2)[nH][nH]c1=O)c1cccs1	-3	0
CCOC(=O)/C=C/c1cccc(OC)c1O	31	-9
CC(C)(C)NC(=O)C(c1ccccc1)n1c(-c2ccc(-c3ccccc3)cc2)nc2ccccc21 (stereo not given)	-6	7

# Two of these compounds in a different format:
Six1-Eya2 blk	CtBP-E1A blk	Structure
-3	0	O=C(Nc1c(-c2ccccc2)[nH][nH]c1=O)c1cccs1
-3	-22	O=C(NCCc1ccccc1F)C1C(=O)Nc2ccccc2C(=O)N1C1CCCCC1 (stereo not given)

# Later entries:
# Results follow in this order: Six1-Eya2 blk, CtBP-E1A blk
COC(=O)[C@@H]1ON2OCC(C)=C3CCCC[C@@]32[C@H]1C(=O)OC
→ 2, -9
C=CCOC(=O)Nc1nc(CCNC(=O)OC(C)(C)C)c(C(=O)O)s1
→ 8, 2
CC(C)CN1C(=O)CN(S(C)(=O)=O)CC1(C)C(=O)NCc1ccccc1 (stereo not given)
→ 6, 0
COC1=CC(=O)OC(c2ccccc2)C1 (stereo not given)
→ 11, 12
COC(=O)C[C@@H]1OC[C@H](C(C)C)N1S(=O)(=O)c1ccc(C)cc1
→ 2, 9
COC(=O)C[C@@H]1CC[C@@H](NS(=O)(=O)c2cccc(OC)c2)[C@@H](CO)O1
→ 8, -2
CC(C)N1C(=O)c2ccccc2NC(=O)C1C(=O)NCc1cccs1 (stereo not given)
→ 0, 0
O=C(Nc1ccc(F)cc1)C(c1ccnc2ccccc12)N1CCN(CC(=O)N2CCCC2)CC1 (stereo not given)
→ 2, -1
COC(=O)[C@@]12C[C@@H](CC(=O)N3CCCC3)C(=O)N(Cc3ccccc3)C1=CCC(C)(C)C2
→ -4, -1
Cc1ccc(S(=O)(=O)N2CC3C(=O)CC(c4ccccc4)N(S(=O)(=O)c4ccc(C)cc4)C3CC2c2cccc(Cl)c2)cc1 (stereo not given)
→ 4, 9
COC(=O)C[C@H]1C=C[C@H](NC(=O)C2CCOCC2)[C@@H](CO)O1
→ 6, 5
O=C(/C=C1\OCc2cc(OCc3ccccc3)ccc21)OCc1ccccc1
→ 10, -6
CC(C)(C)NC(=O)C(c1ccc(-c2ccccc2)cc1)n1c(=O)c(-c2ccccc2)nc2ccccc21 (stereo not given)
→ -3, 6
CCCCCCCCN1C(=O)[C@H](CC(=O)NCCC(C)C)C[C@@]2(C(=O)OC)CC(C)(C)CC=C12
→ -1, -1
CC(C)CN1C(=O)CN(S(C)(=O)=O)CC1(C)C(=O)Nc1ccc2c(c1)OCCO2 (stereo not given)
→ 13, 0
COC(=O)C[C@H]1CC[C@H](NC(=O)Nc2ccccc2OC)[C@@H](CO)O1
→ 0, -2
COC1=CC(=O)OC(c2cccc(C(F)(F)F)c2)C1 (stereo not given)
→ -1, 7
CCC(c1nc2ccccc2[nH]1)n1c(-c2ccnc(Cl)c2)nc2ccccc21 (stereo not given)
→ 13, 13
O=C(Nc1ccc(F)cc1)C(c1cccc(F)c1)N1CCN(c2cccc(C(F)(F)F)n2)CC1 (stereo not given)
→ 6, -11
O=C1Nc2ccccc2-n2nnnc2C1N1CCN(c2ccc(F)cc2)CC1 (stereo not given)
→ 0, 1
CC1(C(=O)Nc2ccc3c(c2)OCCO3)CN(S(C)(=O)=O)CC(=O)N1Cc1cccc(C(F)(F)F)c1 (stereo not given)
→ 1, 3
O=C(NC1CCCC1)N[C@@H]1C=C[C@@H](CC(=O)N2CCOCC2)O[C@@H]1CO
→ 8, -2
CC1(C(=O)NCc2ccccc2)CSCC(=O)N1CC(F)(F)F (stereo not given)
→ -6, -4
O=C(Nc1ccc(Cl)cc1)N[C@H]1CC[C@H](CCn2cc(-c3ccccc3F)nn2)O[C@@H]1CO
→ 5, 4
COc1ccc(C(C(=O)Nc2c(C)cccc2C)n2c(=O)c(-c3ccco3)nc3ccccc32)cc1 (stereo not given)
→ -21, -11
O=C(NC1CCCC1)C(c1ccccc1)n1c(Cc2cc(F)cc(F)c2)nc2ccccc21 (stereo not given)
→ -3, 2
CCc1ccccc1CC1CN(Cc2ccccc2)Cc2ccccc2N1c1ccc(OC)cc1 (stereo not given)
→ -9, -12
CCCCNC(=O)C1C(c2ccc(C(F)(F)F)cc2)=Nc2ccccc2N1C(C)=O (stereo not given)
→ 12, -3
CCCCNC(=O)C1C(c2ccc(C(F)(F)F)cc2)=Nc2ccccc2N1C(=O)c1cccc2ccccc12 (stereo not given)
→ 0, 1
CCCCCn1nnnc1C1(C)CCC(=O)N1Cc1ccco1 (stereo not given)
→ -2, 5
COc1ccccc1CNC(=O)C[C@H]1CC[C@@H]2[C@H](COC[C@H](O)CN2Cc2ccc3c(c2)OCO3)O1
→ -9, 1
Cc1ccc(C)c(C(Nc2ccccc2)c2ccc3ccc(C)nc3c2O)c1 (stereo not given)
→ -6, -2
O=C(NCc1ccccc1)C(c1ccc(-c2ccccc2)cc1)N1CCN(CCN2CCOCC2)CC1 (stereo not given)
→ 1, 3

# A portion of the library; count on the stated rates, not on these rows.
